# Compound activity deposited in PubChem BioAssay by National Center for Advancing Translational Sciences (NCATS).
# EPAC1 ag = EPAC1 (human) agonism | O95398 | EPAC1 agonist qHTS, biochemical assay; response scale: 100% = response to 6.5 mM cAMP | Potency, µM (doses to about 154 µM), for the others: top-dose activation, usual class: activators | 360,000 tested, 0.073% active; also: potency is read from the fitted curve at half-maximal effect; nearly all actives have a fitted effect of over 60% in size
#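 Normalized to 6.5 mM cAMP, activity reflects EPAC1-catalysed release of BODIPY-GDP from Rap1B, followed kinetically over 30 min at 480 nm excitation, 540 nm emission. Reaction contained 100 nM EPAC1, 250 nM Rap1B-BODIPY-GDP, 50 uM GDP.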
# PLK1 PBD inh = blocks phosphopeptide binding to human PLK1 polo-box domain; 360,000 tested, 2.8% active; Plk1 PBD binding of FITC phosphopeptide, fluorescence polarization; P53350; Potency, µM, for the others: max response, negative = inhibition, hits mostly inhibitors; also: potency is read from the fitted curve at half-maximal effect; series mostly up to about 57 µM; % is scaled to controls: 0 for no effect and ±100 for the full control effect; nearly all actives have a fitted effect of over 65% in size
# EPAC1 antag = EPAC1 (human) antagonism. Potency, µM (series often up to 115 µM), without a hit: top-dose activity change, negative = inhibition, hits mostly inhibitors. 360,000 tested, 0.14% active. EPAC1 GEF assay, Rap1b-BODIPY-GDP exchange fluorescence;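 also: potency is read from the fitted curve at half-maximal effect; plate controls were vehicle for no effect and positive control for full effect; nearly all actives have a fitted effect of over 50% in size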
# aSyn yeast inh = alpha-synuclein toxicity inhibition in yeast; Yeast expressing alpha-synuclein, growth rescue, BacTiter-Glo, 24 h; Potency, µM (titrated, usually from 46.1 µM), for inactives: at the highest dose growth rescue (activation), most hits filed as activators; 370,000 tested, 0.14% active; AID 652106; also: potency is read from the fitted curve at half-maximal effect; % of control where 0% means no effect; nearly all actives have a fitted effect of over 65% in size
#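 Rescue of yeast growth: cells expressing toxic alpha-synuclein, induced in galactose at OD600 0.02, incubated with compound 24 h at 30 C. ATP luminescence quantified growth; inhibitors of toxicity appear as activators.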
# FUS yeast rescue = FUS proteinopathy suppression in yeast; S. cerevisiae FUS-expressing, growth rescue, OD600, 24 h; Potency, µM (titrated, usually from 76.6 µM), inactives show at the highest dose growth rescue (activation), hits mostly activators; 390,000 tested, 0.24% active; AID 1347120;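 also: potency is read from the fitted curve at half-maximal effect; plate controls were DMSO vehicle for no effect and reference control for full effect; nearly all actives have a fitted effect of over 55% in size; some results filed as inactive show a strong effect at the top dose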
#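 Yeast expressing FUS under galactose induction, OD 0.005 in 2% galactose medium; compounds in a dilution series, 24 h at 30C. Growth rescue by absorbance at 600 nm; CP55940 positive control, DMSO negative.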
# WRN inhibitor = inhibitors of human WRN helicase. 360,000 tested, 0.46% active. AID 651768. Potency, µM (top dose mostly 114 µM), inactives show at the highest dose activity change, negative = inhibition, usual class: inhibitors. Q14191. WRN helicase unwinding, fluorescent forked duplex, kinetic; also: potency is read from the fitted curve at half-maximal effect; % is scaled to controls: 0 for no effect and ±100 for the full control effect; nearly all actives have a fitted effect of over 55% in size
# Target sequence (Q14191 whole entry, looked up): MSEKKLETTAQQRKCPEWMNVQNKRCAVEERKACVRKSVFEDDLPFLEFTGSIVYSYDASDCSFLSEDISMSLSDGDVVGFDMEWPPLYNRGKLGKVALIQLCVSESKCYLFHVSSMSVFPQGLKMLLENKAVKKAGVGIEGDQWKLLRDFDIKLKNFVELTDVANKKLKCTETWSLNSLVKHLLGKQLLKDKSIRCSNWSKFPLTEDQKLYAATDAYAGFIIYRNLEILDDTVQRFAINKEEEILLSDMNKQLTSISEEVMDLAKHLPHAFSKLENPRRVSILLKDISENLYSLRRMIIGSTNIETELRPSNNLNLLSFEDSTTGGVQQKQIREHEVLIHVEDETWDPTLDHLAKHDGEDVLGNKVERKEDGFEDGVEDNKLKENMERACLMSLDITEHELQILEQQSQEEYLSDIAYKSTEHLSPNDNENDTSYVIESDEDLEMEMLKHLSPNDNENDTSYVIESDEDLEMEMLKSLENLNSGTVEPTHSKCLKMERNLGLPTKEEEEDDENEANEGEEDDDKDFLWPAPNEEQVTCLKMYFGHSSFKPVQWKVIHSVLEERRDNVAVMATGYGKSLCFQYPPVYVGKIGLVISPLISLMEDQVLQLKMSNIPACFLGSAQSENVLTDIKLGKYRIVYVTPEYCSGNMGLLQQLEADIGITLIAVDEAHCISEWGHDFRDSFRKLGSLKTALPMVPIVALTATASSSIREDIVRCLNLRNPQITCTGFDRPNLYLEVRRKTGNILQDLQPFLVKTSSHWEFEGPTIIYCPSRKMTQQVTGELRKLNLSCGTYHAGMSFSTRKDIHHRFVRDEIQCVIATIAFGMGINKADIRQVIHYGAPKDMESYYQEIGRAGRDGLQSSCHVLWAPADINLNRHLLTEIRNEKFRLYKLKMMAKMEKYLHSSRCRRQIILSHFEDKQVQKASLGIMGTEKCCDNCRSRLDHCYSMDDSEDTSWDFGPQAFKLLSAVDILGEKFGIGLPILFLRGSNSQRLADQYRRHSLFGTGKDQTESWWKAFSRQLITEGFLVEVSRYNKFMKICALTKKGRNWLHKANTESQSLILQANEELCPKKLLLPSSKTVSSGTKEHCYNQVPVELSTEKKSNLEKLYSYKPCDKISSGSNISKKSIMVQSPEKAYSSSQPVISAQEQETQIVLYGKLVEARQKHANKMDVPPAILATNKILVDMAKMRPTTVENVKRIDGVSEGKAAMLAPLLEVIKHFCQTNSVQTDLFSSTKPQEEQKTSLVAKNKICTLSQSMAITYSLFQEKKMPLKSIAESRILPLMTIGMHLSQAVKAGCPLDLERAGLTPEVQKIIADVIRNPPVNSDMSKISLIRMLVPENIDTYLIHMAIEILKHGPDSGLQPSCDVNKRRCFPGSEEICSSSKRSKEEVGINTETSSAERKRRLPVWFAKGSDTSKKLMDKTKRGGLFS
#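 Kinetic fluorescence helicase assay: unwinding of a quenched forked DNA duplex (100 nM final) with 2 mM ATP final raises red fluorescence (525/598 nm). Compounds sat 15 min at room temperature with 20 nM WRN beforehand.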
# Abeta yeast res = restores growth of yeast expressing A-beta42 peptide | Potency, µM (series often up to 46.1 µM), without a hit: top-dose growth rescue, usual class: activators | 410,000 tested, 0.063% active | yeast expressing A-beta42, growth rescue, OD600, 48 h; response scale: 0% DMSO, 100% iron-clioquinol control; also: potency is read from the fitted curve at half-maximal effect; nearly all actives have a fitted effect of over 55% in size
#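 Growth rescue measured by 600 nm absorbance after 48 h yeast culture at 30 C with compound. Values normalized between DMSO and an equimolar ferric chloride plus clioquinol control.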
# IL-2 act = IL-2 activation | IL-2 activation reporter assay, cell-based qHTS; stimulated with anti-CD3/CD4/CD28 beads; in transgenic mouse T cells | activation, % (series mostly up to about 46 µM) | 360,000 tested, 0.065% active; in the data active = activation above about 50%; inconclusive = mostly about 30% to 49%; also: 0% is about no effect
#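 Readout: EGFP and DsRed signals by fluorescent plate cytometry. Unstimulated transgenic mouse T cells received compound 60 min before antibody-bead stimulation, then incubated 18 h at 37 degrees C.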
# An asterisk follows results filed as active; ? = inconclusive; / = not tested or not shown; [ ] = another dose, or the depositor's remark. Unless noted, calls follow the shape of the dose curve; as a rule, active = well fitted curve in the direction sought with a large enough effect; inconclusive = small, poorly fitted or top-dose-only effect, or another doubt; inactive = no such curve, though single readings can be large; an effect the other way counts as inactive or inconclusive. Some of the compounds tested, so the mix of outcomes need not match the whole.
# Start of the data: the first 6 entries, to show the layout:
no.	canonical_smiles	EPAC1 ag	PLK1 PBD inh	EPAC1 antag	aSyn yeast inh
1	O=C1NC2(CCC3(CC2)OCCO3)NN1c1ccc(Cl)cc1	0%	-17%	8%	19%
2	O=C(CCS(=O)(=O)c1ccccc1)Nc1nnc(C(F)(F)F)s1	-8%	-17%	-16%	-4%
3	CCCCNS(=O)(=O)c1ccc2nc(SCC(=O)Nc3sccc3C#N)[nH]c2c1	8%	-6%	-6%	3%
4	Cc1cc2c(cc1C)-n1nnnc1C(N1CCN(C(=O)OCc3ccccc3)CC1)C(=O)N2 (stereo unspecified)	?	-3%	-24%	0%
5	Cc1ccc(S(=O)(=O)N(C)C)cc1NC(=O)COc1ccc(-c2nnco2)cc1	9%	0%	8%	-13%
6	O=C(NCCc1ccccc1)Nc1ccc(Cl)cc1	-3%	-5%	-20%	-8%

no.	FUS yeast rescue	WRN inhibitor	Abeta yeast res	IL-2 act
1	13%	7%	-6%	-0.7
2	15%	0%	-11%	-0.4
3	28%	?	14%	1.1
4	?	-2%	-1%	-0.7
5	-3%	-2%	6%	-1.6
6	-17%	-17%	12%	0.3

# The whole of this part, previewed entries included:
no.	canonical_smiles	EPAC1 ag	PLK1 PBD inh	EPAC1 antag	aSyn yeast inh
1	O=C1NC2(CCC3(CC2)OCCO3)NN1c1ccc(Cl)cc1	0%	-17%	8%	19%
2	O=C(CCS(=O)(=O)c1ccccc1)Nc1nnc(C(F)(F)F)s1	-8%	-17%	-16%	-4%
3	CCCCNS(=O)(=O)c1ccc2nc(SCC(=O)Nc3sccc3C#N)[nH]c2c1	8%	-6%	-6%	3%
4	Cc1cc2c(cc1C)-n1nnnc1C(N1CCN(C(=O)OCc3ccccc3)CC1)C(=O)N2 (stereo unspecified)	?	-3%	-24%	0%
5	Cc1ccc(S(=O)(=O)N(C)C)cc1NC(=O)COc1ccc(-c2nnco2)cc1	9%	0%	8%	-13%
6	O=C(NCCc1ccccc1)Nc1ccc(Cl)cc1	-3%	-5%	-20%	-8%
7	O=C(CSc1nccc(=O)[nH]1)Nc1ccc(Oc2ccccc2)cc1	17%	-17%	15%	1%
8	NS(=O)(=O)c1ccc(CCNC(=O)CCc2nc3sc4c(c3c(=O)[nH]2)CCCC4)cc1	-4%	-11%	8%	-2%
9	CC(C)(C)S(=O)(=O)N1C[C@@H]2CC/C=C\C/C(c3ccccc3)=C\2[C@H]1CCO	-14%	-7%	-6%	15%
10	Cc1ccc(C)c2[nH]c(=O)c(CCNC(=O)c3ccc(S(=O)(=O)N4CCCC4)cc3)cc12	-16%	1%	-6%	4%
11	CCOc1ccccc1Nc1nc2ccc(C)cc2n2cnnc12	14%	-4%	-2%	?
12	O=C(OCCN1C(=O)c2ccccc2C1=O)c1cc(S(=O)(=O)N2CCOCC2)ccc1Cl	8%	1%	?	9%
13	NC(=O)c1ccc(NC(=O)CCC(=O)c2cccs2)cc1	9%	-13%	-10%	0%
14	O=C(c1cc2nc(-c3cccs3)cc(C(F)(F)F)n2n1)N1CCCc2ccccc21	-4%	2%	-18%	11%
15	CCN(CC)S(=O)(=O)c1cccc(NC(=O)COC(=O)c2cc(C)oc2C)c1	4%	-4%	-13%	3%

no.	FUS yeast rescue	WRN inhibitor	Abeta yeast res	IL-2 act
1	13%	7%	-6%	-0.7
2	15%	0%	-11%	-0.4
3	28%	?	14%	1.1
4	?	-2%	-1%	-0.7
5	-3%	-2%	6%	-1.6
6	-17%	-17%	12%	0.3
7	-7%	-3%	-5%	0.7
8	31%	-2%[11.6 µM]	-10%	0.0
9	18%	-2%	0%	0.0
10	22%	5%	-1%	-0.8
11	-20%	-10%	2%	-1.7
12	-16%	-15%	-3%[9.22 µM]	-3.7
13	21%	?	-2%	0.9
14	13%	-11%	17%	4.8
15	33%	-7%	?	1.8

# Additional compounds
no.	canonical_smiles	EPAC1 ag	PLK1 PBD inh	EPAC1 antag	aSyn yeast inh
16	Cc1cccc(CCNc2nc3ccc(C)cc3n3cnnc23)c1	11%	-6%	0%	-4%
17	CCOC(=O)c1cc(C#N)c(N2CCCNCC2)nc1C(F)(F)F	-4%	-4%	3%	-1%
18	COc1ccc(-c2nnc(S/C(=C/c3ccc(Cl)cc3)C(=O)O)o2)cc1	0%	-5%	3%	-6%
19	CCOc1cc(C2/C(=C(/O)c3ccc(OC(C)C)cc3)C(=O)C(=O)N2CCCOC)ccc1O (stereo unspecified)	2%	-3%	-1%	-4%
20	CCOc1ccc(NC(=O)C2(c3ccc(OC)c(OC)c3)CCCC2)cc1	-7%	-5%	-1%	-1%
21	COCCc1nc2ccc(C(=O)N(C)Cc3cccc(-n4cccn4)c3)cc2o1	2%	0%	-6%	4%
22	Cc1ccc(CNC(=O)Cn2cnc(S(=O)(=O)N3CCCCC3)c2)o1	4%	-12%	-5%	0%
23	COc1ccccc1C(=O)NCCNC(=O)c1ccco1	9%	27µM*	0%	3%
24	CC(C)C(NC(=O)c1c(F)cccc1F)C(=O)NCC(c1ccccc1)N(C)C (stereo unspecified)	13%	-15%	-3%	-6%
25	Cn1ccnc1SCC(=O)Nc1sccc1C#N	-2%	-18%	-3%	-3%
26	COc1ccccc1NC(=S)N1CCc2cc(OC)c(OC)cc2C1	4%	-10%	-1%	6%
27	COc1ccc(OC)c(C(=O)CSc2nnc(-c3cccs3)n2C)c1	0%	-1%	0%	3%
28	O=C(NCCCN1CCOCC1)c1ccccc1	-3%	-3%	1%	-5%
29	COc1ccccc1N1CCN(CCOc2c(OC)cccc2OC)CC1	2%	?	-8%	-3%
30	CCOC(=O)Cn1c(C)c(C#N)c2ccccc21	2%	-2%	-3%	3%

no.	FUS yeast rescue	WRN inhibitor	Abeta yeast res	IL-2 act
16	6%	2%	-15%	1.9
17	-5%	1%	5%	-3.9
18	9%	5%	10%	0.0
19	6%	3%	-10%	-0.4
20	/	-2%	-7%	0.0
21	/	-10%	3%	-4.4
22	-11%	3%	2%	-2.9
23	-1%	-1%	16%	6.7
24	-32%	12%	19%	0.1
25	1%	-9%[57.1 µM]	-10%	0.1
26	/	-24%	7%	0.1
27	5%	0%	?	-0.4
28	-8%	-2%	7%	0.8
29	15%	-7%	0%	-0.6
30	6%	3%	17%	1.4

# Printed as active in PLK1 PBD inh, among the entries above:
entry	structure	PLK1 PBD inh	EPAC1 antag	FUS yeast rescue	WRN inhibitor	IL-2 act
23	COc1ccccc1C(=O)NCCNC(=O)c1ccco1	27µM*	0%	-1%	-1%	6.7

# Taken from the listing for reference:
no.	canonical_smiles	EPAC1 ag	PLK1 PBD inh	EPAC1 antag	aSyn yeast inh
22	Cc1ccc(CNC(=O)Cn2cnc(S(=O)(=O)N3CCCCC3)c2)o1	4%	-12%	-5%	0%
23	COc1ccccc1C(=O)NCCNC(=O)c1ccco1	9%	27µM*	0%	3%
24	CC(C)C(NC(=O)c1c(F)cccc1F)C(=O)NCC(c1ccccc1)N(C)C (stereo unspecified)	13%	-15%	-3%	-6%
25	Cn1ccnc1SCC(=O)Nc1sccc1C#N	-2%	-18%	-3%	-3%

no.	FUS yeast rescue	WRN inhibitor	Abeta yeast res	IL-2 act
22	-11%	3%	2%	-2.9
23	-1%	-1%	16%	6.7
24	-32%	12%	19%	0.1
25	1%	-9%[57.1 µM]	-10%	0.1
